Assay outcomes from PubChem.
PINK1 modulator = modulators of PINK1 expression; PINK1 immunofluorescence, high-content cytometry, 24 h; Potency, µM (doses to about 76.6 µM), for inactives: at the top dose activation (PINK1 increase), usual class: activators; hit rate 0.2% among 410,000; AID 624263; active = well fitted activation curve with a large enough effect; inconclusive = small, poorly fitted or top-dose-only effect; inactive = flat fitted curve, though single readings scatter; cell line not stated here;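 further: potency means the concentration at half of the fitted maximal effect; % of control where 0% means no effect; nearly all actives have a fitted effect of over 65% in size; a mitochondrial uncoupler was the plate control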
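Compound titrations (5 concentrations, 24 h) on a stable cell line; DMSO and CCCP controls. Endpoint: fixed-cell PINK1 immunofluorescence with mitochondrial, cell and nuclear markers, scanned by microplate cytometer.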
TRPML1 ag = agonists of human TRPML1 channel. hit rate 0.12% among 410,000. activation, % (concentration not given with the values). Q9GZU1. AID 624414. TRPML1-expressing cells, Ca2+ dye fluorescence, FDSS; host cell line not named in the record; reference of the full effect not given here; in the data active = activation above about 50%; inconclusive = about 30% to 50%; inactive = below about 30%; further: 0% is about no effect; the text of the record puts the active cut at 80%
Target sequence (Q9GZU1 whole entry, looked up): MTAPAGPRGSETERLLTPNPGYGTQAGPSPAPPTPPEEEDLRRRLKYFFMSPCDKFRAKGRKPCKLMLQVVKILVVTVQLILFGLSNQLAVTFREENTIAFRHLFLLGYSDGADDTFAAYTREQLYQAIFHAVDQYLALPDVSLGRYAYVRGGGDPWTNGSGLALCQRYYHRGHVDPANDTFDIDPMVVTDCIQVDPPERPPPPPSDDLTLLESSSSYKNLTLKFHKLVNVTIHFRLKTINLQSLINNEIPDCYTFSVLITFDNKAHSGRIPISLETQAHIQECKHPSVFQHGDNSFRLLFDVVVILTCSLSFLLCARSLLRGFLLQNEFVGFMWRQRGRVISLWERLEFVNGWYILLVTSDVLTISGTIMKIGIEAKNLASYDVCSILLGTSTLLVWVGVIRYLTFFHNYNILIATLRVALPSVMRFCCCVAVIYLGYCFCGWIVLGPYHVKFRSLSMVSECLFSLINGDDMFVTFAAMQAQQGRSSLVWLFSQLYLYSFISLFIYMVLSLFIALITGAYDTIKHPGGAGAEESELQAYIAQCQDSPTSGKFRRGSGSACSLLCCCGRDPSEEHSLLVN
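Tetracycline-induced TRPML1-DL cells are seeded and incubated overnight before loading with a no-wash Ca2+ dye and quencher. Agonist activity is taken from the 110 s fluorescence read following compound pin-transfer on an FDSS, before EC80 54-4 challenge.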
* marks the source's active call; other numbers are inactive results; ? = inconclusive.

SMILES | PINK1 modulator | TRPML1 ag
COc1cc([C@@H]2Nc3c(F)cccc3[C@@H]3C=CC[C@@H]32)cc(Br)c1OC | 6.0% | 1.8
Cc1ccc(CNC(=O)CN2C(=O)CSc3ccc(S(=O)(=O)N(C)C)cc32)cc1 | -0.4% | -0.6
Cc1ccc(N2CCN(C(=O)c3cccn4c(=O)c5ccc(Cl)cc5nc34)CC2C)cc1 (stereo not drawn) | 0.8% | 0.6
Cc1cc(C)cc(C(=O)n2nc(C)c(S(=O)(=O)N3CCOCC3)c2C)c1 | 1.9% | 0.1
COc1ccc(-c2cc(C(F)(F)F)n3nc(C(=O)Nc4cccc(Cl)c4C)cc3n2)cc1 | 1.3% | -0.5
COc1ccc(C2c3c(-c4ccccc4O)n[nH]c3C(=O)N2CCc2ccccc2)cc1 (stereo not drawn) | 15.6% | 3.1
CCOC(=O)c1c(NC(=O)c2cc(-c3cccc(Cl)c3)on2)sc(C)c1C | 0.6% | -0.4
CCOC(=O)c1ccccc1NC(=O)c1c2c(nc3ccccc13)C(=O)N(C1CCCCC1)C2 | 0.3% | -0.1
CCc1ccc(CNC(=O)CCCn2ccc3cc(S(=O)(=O)N4CCCC4)ccc32)cc1 | 1.5% | 2.5
O=C(Nc1ccc2oc(-c3cc(Br)ccc3Cl)nc2c1)c1cc2ccccc2o1 | 8.6% | -0.7
Cc1ccc(NC(=O)C(Cc2ccccc2)n2cccc2)cc1C (stereo not drawn) | -0.1% | 4.1
Cc1ccc(N2CC(NC(=O)Cc3cccs3)CC2=O)cc1C (stereo not drawn) | -0.6% | -0.9
Cn1nc(-c2ccc(OCC(=O)Nc3ccc(Cl)cc3)cc2)c2ccccc2c1=O | 0.7% | -1.2
COc1cc2c(cc1OC)C(COc1ccc3c(C)cc(=O)oc3c1)N(C(=O)c1ccccc1F)CC2 (stereo not drawn) | 0.4% | -0.6
Cc1ccc(-c2cc(C(F)(F)F)n3nc(C(=O)Nc4ccc(Cl)c(C(F)(F)F)c4)cc3n2)cc1 | 0.4% | -0.6
Cc1ccc(S(=O)(=O)c2cnc(SCC(=O)Nc3ccc4c(c3)OCCO4)[nH]c2=O)cc1C | 1.5% | 1.7
CC(C)n1c(=O)c2oc3ccccc3c2n(CC(=O)Nc2ccccc2Cl)c1=O | 0.5% | 0.9
CCc1ccccc1NC(=O)CC(C)n1nc(C)cc1C (stereo not drawn) | -1.2% | 0.3
Cc1ccccc1CNC(=O)Cn1c(=O)c2cccn2c2cccnc21 | -0.4% | 3.1
COc1ccc(Nc2ncnc3c2cnn3-c2ccc(C)cc2)cc1Cl | 0.9% | 0.7
O=C(NCc1ccccc1Cl)c1nnc(Cc2ccc(Cl)cc2)o1 | 0.4% | -0.3
O=c1oc2cc(O)ccc2cc1-c1nc(-c2ccc(Cl)c(Cl)c2)cs1 | 8.9% | 2.9
CCOc1ccc(NC(=O)CN2C(=O)COc3ccc(S(=O)(=O)NC4CCCC4)cc32)cc1 | 5.1% | 1.5
COC(=O)c1ccc(C2c3c(oc4ccccc4c3=O)C(=O)N2c2nc(C)c(C(=O)OC)s2)cc1 (stereo not drawn) | -0.5% | 0.5
COc1ccccc1CNC(=O)c1cccn1-c1nnc(N2CCCCC2)s1 | -1.4% | 1.6
CCn1cc(C(=O)NCc2ccc(Cl)cc2)c(=O)c2cc(S(=O)(=O)N3CCc4ccccc4C3)ccc21 | 0.2% | -0.5
CCc1ccc(NC(=O)c2ccc(F)c(S(=O)(=O)N3CCN(c4cc(C)ccc4C)CC3)c2)cc1 | 0.4% | 0.4
CC1Cc2cc(S(=O)(=O)NCCc3ccccc3)ccc2N1C(=O)C1CCC1 (stereo not drawn) | 0.4% | 4.9
Cc1ccc(Cl)cc1N1CCN(C(=O)CCCCCn2c(=O)[nH]c3ccccc3c2=O)CC1 | -0.7% | 0.1
CCOC(=O)Cn1nc(-c2ccccc2)c2cnc3ccc(OCC)cc3c21 | 1.8% | 1.0
Cn1c2c(c(=O)n(C)c1=O)C(c1cc(Br)ccc1F)CC(=O)N2 (stereo not drawn) | -0.2% | -0.1
O=C(CN1C(=O)CCSc2ccccc21)Nc1ccccc1F | 0.4% | 4.3
Oc1ccc(-c2nc(-c3ccccc3)c(-c3ccc(Br)cc3)[nH]2)cc1 | 5.8% | 0.3
O=C(NC(=O)c1ccccc1)Nc1ccc(-c2cc(C(F)(F)F)nn2-c2ccccc2)cc1 | 0.7% | 1.5
O=C(CSc1c2c(nc3cc(Cl)ccc13)CCCC2)NCc1ccccc1Cl | 3.6% | 4.1
CCOC(=O)c1c(C)oc2nc(C)nc(NCCc3ccc(S(N)(=O)=O)cc3)c12 | -1.3% | 1.4
COc1ccc(Nc2c(-c3ccc(Cl)cc3)nc3cnccn23)cc1OC | 2.2% | -1.2
COc1ccc(-c2nc3n(n2)C(c2ccc(OC)cc2)C(C(=O)Nc2cccnc2)=C(C)N3)cc1 (stereo not drawn) | -0.9% | -0.3
CCc1nn2c(=O)cc(COC(=O)c3ccc(NC(=O)COc4ccc(C)cc4)cc3)nc2s1 | -0.7% | 2.1
Cn1nnc2c(NCCc3ccccc3)ncnc21 | 21.0% | 1.9
O=C(CSc1nnc(CNC(=O)c2c(F)cccc2Cl)o1)Nc1cccc(F)c1 | -1.2% | 0.9
CN(Cc1ccccc1)C(=O)C(=O)Nc1ccc2nc3n(c(=O)c2c1)CCCCC3 | 8.9% | 2.1
CCOC(=O)Cn1c(=O)oc2cc(S(=O)(=O)N3CCN(c4ccc(C(C)=O)cc4)CC3)ccc21 | ? | 1.9
COc1cccc2cc(-c3nc(-c4ccc(Cl)cc4)cs3)c(=O)oc12 | 4.5% | -0.5
CCc1ccc(-n2c(=O)c3c4c(sc3n(CC(=O)c3ccc(Cl)cc3)c2=O)CCC4)cc1 | 1.2% | -0.3

Part of the list above, set out differently.
| mol | PINK1 modulator | TRPML1 ag |
| --- | --- | --- |
| Oc1ccc(-c2nc(-c3ccccc3)c(-c3ccc(Br)cc3)[nH]2)cc1 | 5.8% | 0.3 |
| O=C(NC(=O)c1ccccc1)Nc1ccc(-c2cc(C(F)(F)F)nn2-c2ccccc2)cc1 | 0.7% | 1.5 |
| O=C(CSc1c2c(nc3cc(Cl)ccc13)CCCC2)NCc1ccccc1Cl | 3.6% | 4.1 |
| CCOC(=O)c1c(C)oc2nc(C)nc(NCCc3ccc(S(N)(=O)=O)cc3)c12 | -1.3% | 1.4 |
| COc1ccc(Nc2c(-c3ccc(Cl)cc3)nc3cnccn23)cc1OC | 2.2% | -1.2 |

New compounds follow:
SMILES | PINK1 modulator | TRPML1 ag
COc1cccc(C(=O)NCC(c2ccc(N(C)C)cc2)N2CCc3ccccc32)c1OC (stereo not drawn) | 0.5% | 0.5
c1ccc2c(c1)ncc1nncn12 | 2.3% | -0.8
COc1ccc(N2CCN(CCCNC(=O)c3ccc4nc(N5CCCCC5)sc4c3)CC2)cc1 | -0.4% | 1.3
Fc1ccccc1N1CCN(c2c3c(nc4nncn24)CCC3)CC1 | 1.0% | -0.3
CCCCn1c(CNC(=O)C23CC4CC(CC(C4)C2)C3)nnc1SCC(=O)Nc1ccc(F)cc1 | 0.5% | 0.9
COc1ccc(NC(=O)c2c(C)oc3ccc(O)c(CN4CCCC4)c23)cc1Cl | 1.0% | -0.9
COc1ccc(-c2nc3nc(C)cc(Nc4ccc(C(C)=O)cc4)n3n2)cc1 | 10.1% | -0.9
CCCCOc1ccc(NC(=O)Cn2nnnc2-c2ccccc2F)cc1 | 0.7% | 2.2
Cc1ccccc1-c1noc(-c2ccc(NC3CCCC3)c([N+](=O)[O-])c2)n1 | 2.1% | -0.4
CCOc1ccc(CCNC(=O)c2cnc3sc(N4CCCCC4)nn3c2=O)cc1 | 1.5% | -0.9
CCOc1cccc(C2c3c(oc4ccc(F)cc4c3=O)C(=O)N2CCc2ccc(OC)cc2)c1 (stereo not drawn) | 0.7% | -0.2
COc1ccc(C(=O)Nc2ccc3c(c2)N(C)C(=O)c2ccccc2S3)cc1OC | 7.0% | -0.1
COc1ccc(-c2c(C#N)c(SCC(=O)Nc3ccc(C)c(C)c3)nc(C)c2C(=O)Nc2ccccc2)cc1OC | 0.9% | -0.2
Cc1cc(C)c(NS(=O)(=O)c2ccc(-c3coc(C)n3)cc2)c(C)c1 | 2.8% | 1.4
COCCN(Cc1ccco1)C(=O)c1cc2c(=O)[nH]c3ccc(C)cc3c2s1 | 2.2% | 0.4
Clc1ccccc1CNc1nc2ccccc2c2nc(-c3cccnc3)nn12 | -1.0% | -0.4
CCN(CC)c1ccc(NC(=O)C2CCN(S(=O)(=O)c3c(C)noc3/C=C/c3ccccc3F)CC2)c(C)c1 | -0.4% | 0.7
Cc1nn(-c2ccc(F)cc2)c(-n2cccc2)c1C(=O)NCCc1ccc(Cl)cc1 | 29.6% | 5.0
O=C(Nc1cccc(Cl)c1)c1csnn1 | -1.1% | 4.8
O=C(NCc1ccccc1)c1ccc(NC(=O)N2CC3CCCN3c3ccccc32)cc1 (stereo not drawn) | -1.3% | 0.1
COc1ccc(-c2nc(C(=O)Nc3cccc(C(C)=O)c3)nn2-c2ccccc2Cl)cc1 | -1.3% | -0.2
CCOCCCn1c(=N)c(S(=O)(=O)c2ccc(C)cc2)cc2c(=O)n3cccc(C)c3nc21 | 5.1% | 3.3
O=C(O)c1c(CNCc2cccc(F)c2)c2ccccc2n1Cc1ccccc1 | 0.1% | -0.8
Cc1nc2ccccn2c(=O)c1NC(=O)c1c(F)cccc1F | 0.6% | -0.2
Cc1ccc(Cl)cc1NC(=O)c1nnn(Cc2ccccc2)c1N | 4.5% | -0.8
N#Cc1ccccc1Cn1c(=O)n(Cc2ccc(C(=O)NC3CCN(Cc4ccccc4)CC3)cc2)c(=O)c2ccccc21 | -0.3% | 1.6
O=C(Nc1ccc(Cl)c(Cl)c1)N1CCC(c2ccccc2)C1 (stereo not drawn) | 2.7% | 3.3
Cc1cc(C)c(NC(=O)Nc2ccc3snnc3c2)c(C)c1 | 9.6% | 1.1
Cc1ccc(C)n1-c1nnc(N2CCCC(C(=O)NCc3cccc(Cl)c3)C2)s1 (stereo not drawn) | 0.4% | 0.2
COc1ccc(Br)c(C(=O)Nc2cc3c(cc2N2CCCC2)n(C)c(=O)c(=O)n3C)c1 | -0.4% | 1.9

A different layout for some results above:
| canonical_smiles | PINK1 modulator | TRPML1 ag |
| --- | --- | --- |
| O=C(Nc1cccc(Cl)c1)c1csnn1 | -1.1% | 4.8 |
| O=C(NCc1ccccc1)c1ccc(NC(=O)N2CC3CCCN3c3ccccc32)cc1 (stereo not drawn) | -1.3% | 0.1 |
| COc1ccc(-c2nc(C(=O)Nc3cccc(C(C)=O)c3)nn2-c2ccccc2Cl)cc1 | -1.3% | -0.2 |
| CCOCCCn1c(=N)c(S(=O)(=O)c2ccc(C)cc2)cc2c(=O)n3cccc(C)c3nc21 | 5.1% | 3.3 |
| O=C(O)c1c(CNCc2cccc(F)c2)c2ccccc2n1Cc1ccccc1 | 0.1% | -0.8 |
| Cc1nc2ccccn2c(=O)c1NC(=O)c1c(F)cccc1F | 0.6% | -0.2 |

(next part)
SMILES | PINK1 modulator | TRPML1 ag
O=C(COc1ccc(Cl)cc1)OCc1cc(=O)n2nc(C3CC3)sc2n1 | 1.5% | 1.5
COc1ccc2c(C)c(CCC(=O)NCc3ccc(Cl)cc3)c(=O)oc2c1C | 0.7% | 0.7
COc1cccc(OC)c1-c1cc(CCCc2cc(-c3c(OC)cccc3OC)nc3ccccc23)c2ccccc2n1 | 14.9% | 2.4
COCCNC(=O)CCCn1c(SCc2ccccc2C)nc2c(sc3ccccc32)c1=O | 1.8% | -0.3
COc1ccc(-c2nnc(Nc3ccc(OCC(N)=O)cc3)c3ccccc23)cc1 | 4.6% | 0.8
COc1ccc(Br)cc1CNC(=O)c1ccc2c(c1)N(Cc1ccc(C)cc1)CCS2 | 2.8% | -0.2
O=C(CN1C(=O)COc2ccc(Cl)cc21)Nc1ccc(F)cc1 | -0.3% | 1.9
CCOC(=O)C1CCC(CN(Cc2c(Cl)cccc2Cl)S(=O)(=O)c2ccc(F)c(C)c2)CC1 (stereo not drawn) | 0.2% | 14.5
Cc1ccc(NC(=O)CN(C)S(=O)(=O)c2cnc[nH]2)cc1 | -2.0% | 0.6
CC(=O)N1CCc2cc(CNS(=O)(=O)c3ccc(C(C)(C)C)cc3)ccc21 | -0.3% | 3.3
CCc1ccc(CNC(=O)C2CCN(C(=O)c3ccc(-n4c(C)cc5ccccc54)s3)CC2)cc1 | -1.6% | 1.2
COc1ccccc1NC(=O)CSc1nc(O)c(C/C=C/c2ccccc2)c(=O)[nH]1 | 0.9% | 3.4
CC(C)c1ccc(Nc2sc(C(=O)c3ccccc3)c(N)c2S(=O)(=O)c2ccccc2)cc1 | -0.8% | 0.5
COc1ccc(Cn2c(C(=O)O)c(CNCc3ccc(SC)cc3)c3ccc(OC)cc32)cc1 | 1.1% | 0.2
CCc1c(C)sc2c1CCN(Cc1cccc(OC)c1)C2c1ccccc1 (stereo not drawn) | -0.7% | -0.3
CCN(CC)CCCNc1ncnc2c1cnn2-c1ccc(C)c(C)c1 | 3.4% | -0.5
O=C(CN1C(=O)CSc2ccc(S(=O)(=O)N3CCCC3)cc21)NCc1ccc(Cl)cc1 | -0.3% | 1.3
Cc1ccc2c(c1)c(=O)c1ccccc1n2CCCC(=O)Nc1ccc(Cl)cc1C | -0.5% | 2.3

These rows are one share of the data, so the mix of outcomes need not match the whole.
